Bm FixLJ act: activators of Burkholderia fixLJ two-component system; B. multivorans fixK-promoter GFP reporter, 18 h; active compounds read high; hit rate 0.3% among 29,000; AID 1918990; z-score (concentration not given with the values);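 active = replicate mean overnight rise in green fluorescent reporter signal, 3 or more SD over negative controls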;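 note: score is relative to vehicle wells of the plate; 300 nL library stock went into each well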
Starred values were filed as active, the others as inactive; & = joins results of further samples. Not all compounds are listed; the hit share may differ from the screen's.

1: CC(C)Cc1ccc(C(C)C(=O)O)cc1 (stereo not drawn)
  Bm FixLJ act: 0.17&-0.74
2: CCCCC1CCC(CCCC(C)CCC(=O)O)CC1 (stereo not drawn)
  Bm FixLJ act: -3.04
3: CN1CCC(=C2c3ccccc3CCc3sccc32)CC1
  Bm FixLJ act: -0.38
4: CN(C)C/C=C(/c1ccc(Br)cc1)c1cccnc1
  Bm FixLJ act: -1.57
5: COc1ccc(CN(CCN(C)C)c2ccccn2)cc1
  Bm FixLJ act: -1.59&-0.6
6: O=C(Cn1ccnc1[N+](=O)[O-])NCCO
  Bm FixLJ act: -1.03
7: Cc1nc2c3ccccc3nc(NNC(=O)CCC(=O)N3CCN(c4cc(Cl)ccc4C)CC3)n2n1
  Bm FixLJ act: -1.89
8: CCC1C(=O)OCC1Cc1cncn1C (stereo not drawn)
  Bm FixLJ act: -0.7
9: C[C@]12CC3CC(N)(C1)C[C@@](C)(C3)C2
  Bm FixLJ act: -0.64
10: Cc1cc2c(s1)Nc1ccccc1N=C2N1CCN(C)CC1
  Bm FixLJ act: -2.71&-0.7
11: COc1ccccc1OCC(O)COC(N)=O (stereo not drawn)
  Bm FixLJ act: -1.3
12: O=C(OC1CC2CC3C[C@@H](C1)N2CC3=O)c1c[nH]c2ccccc12 (stereo partly drawn)
  Bm FixLJ act: -1.6
13: COc1ccc(C(=O)Nc2nc3ccccc3n2CCOc2ccc(Cl)cc2)cc1
  Bm FixLJ act: 1.01
14: CN(C)CCCN1c2ccccc2Sc2ccccc21
  Bm FixLJ act: -0.85
15: CC(=O)O[C@]1(C(C)=O)CC[C@H]2[C@@H]3C=C(Cl)C4=CC(=O)[C@@H]5C[C@@H]5[C@]4(C)[C@H]3CC[C@@]21C
  Bm FixLJ act: -0.25
16: N=C(N=C(N)N)N1CCOCC1
  Bm FixLJ act: -0.08
17: Cc1coc2c1C(=O)C(=O)c1c-2ccc2c1CCCC2(C)C
  Bm FixLJ act: -0.94
18: COc1cc2nc(N3CCN(C(=O)C4COc5ccccc5O4)CC3)nc(N)c2cc1OC (stereo not drawn)
  Bm FixLJ act: -2.49&-0.65
19: O=C1NCC2(CCN(CCc3ccccc3)CC2)O1
  Bm FixLJ act: -1.05
20: CC[C@]1(O)CC2CN(CCc3c([nH]c4ccccc34)[C@@](C(=O)OC)(c3cc4c(cc3OC)N(C)[C@H]3[C@@](O)(C(=O)OC)[C@H](OC(C)=O)[C@]5(CC)C=CCN6CC[C@]43[C@@H]65)C2)C1 (stereo partly drawn)
  Bm FixLJ act: -1.28&-1.72
21: CCCOc1ccccc1-c1nc2n[nH]nc2c(=O)[nH]1
  Bm FixLJ act: -1.75
22: NS(=O)(=O)c1cc2c(cc1C(F)(F)F)NC(Cc1ccccc1)NS2(=O)=O (stereo not drawn)
  Bm FixLJ act: -0.15
23: O=C(O)COC(=O)Cc1ccccc1Nc1c(Cl)cccc1Cl
  Bm FixLJ act: -1.19
24: Cc1nc2c3ccccc3nc(NNC(=O)CCC(=O)N3CCN(c4ccccc4)CC3)n2n1
  Bm FixLJ act: -1.29
25: Cc1nnc(NS(=O)(=O)c2ccc(N)cc2)s1
  Bm FixLJ act: 0.21

Look-ups from the results shown:
CN(C)CCCN1c2ccccc2Sc2ccccc21 @ Bm FixLJ act: -0.85
CC(=O)O[C@]1(C(C)=O)CC[C@H]2[C@@H]3C=C(Cl)C4=CC(=O)[C@@H]5C[C@@H]5[C@]4(C)[C@H]3CC[C@@]21C @ Bm FixLJ act: -0.25
COc1ccc(CN(CCN(C)C)c2ccccn2)cc1 @ Bm FixLJ act: -1.59&-0.6

A different layout for part of the listing above:
no. | smiles | Bm FixLJ act
19 | O=C1NCC2(CCN(CCc3ccccc3)CC2)O1 | -1.05
20 | CC[C@]1(O)CC2CN(CCc3c([nH]c4ccccc34)[C@@](C(=O)OC)(c3cc4c(cc3OC)N(C)[C@H]3[C@@](O)(C(=O)OC)[C@H](OC(C)=O)[C@]5(CC)C=CCN6CC[C@]43[C@@H]65)C2)C1 (stereo partly drawn) | -1.28&-1.72

Back to the main list with the four entries that preceded the break.
22: NS(=O)(=O)c1cc2c(cc1C(F)(F)F)NC(Cc1ccccc1)NS2(=O)=O (stereo not drawn)
  Bm FixLJ act: -0.15
23: O=C(O)COC(=O)Cc1ccccc1Nc1c(Cl)cccc1Cl
  Bm FixLJ act: -1.19
24: Cc1nc2c3ccccc3nc(NNC(=O)CCC(=O)N3CCN(c4ccccc4)CC3)n2n1
  Bm FixLJ act: -1.29
25: Cc1nnc(NS(=O)(=O)c2ccc(N)cc2)s1
  Bm FixLJ act: 0.21
26: CNC(=O)c1ccc(CSc2nc3ccncc3n2Cc2ccc(C)cc2)cc1
  Bm FixLJ act: -2.23
27: CCC[C@H](N[C@@H](C)C(=O)N1[C@H](C(=O)O)C[C@@H]2CCCC[C@@H]21)C(=O)OCC
  Bm FixLJ act: -2.49
28: C[C@H]1COc2c(N3CCN(C)CC3)c(F)cc3c(=O)c(C(=O)O)cn1c23
  Bm FixLJ act: -4.78&-3.23
29: c1ccc2c(CC3=NCCN3)cccc2c1
  Bm FixLJ act: -2.16&-1.04
30: Cc1onc(-c2ccccc2Cl)c1C(=O)N[C@@H]1C(=O)N2[C@@H]1SC(C)(C)[C@@H]2C(=O)O
  Bm FixLJ act: -1.18
31: Cc1oc(-c2cccc(Cl)c2)nc1Cn1c(SCc2ccccc2F)nc2ccncc21
  Bm FixLJ act: -0.44
32: CC(Oc1c(Cl)cccc1Cl)C1=NCCN1 (stereo not drawn)
  Bm FixLJ act: -1.41
33: O=C(O)CN1C(=O)c2cccc3cccc(c23)C1=O
  Bm FixLJ act: -1.16

In the list so far, 2 contain two or more sulfur atoms.
22: NS(=O)(=O)c1cc2c(cc1C(F)(F)F)NC(Cc1ccccc1)NS2(=O)=O (stereo not drawn)
  Bm FixLJ act: -0.15
25: Cc1nnc(NS(=O)(=O)c2ccc(N)cc2)s1
  Bm FixLJ act: 0.21

Screening data from PubChem BioAssay.
